Compound activity from PubChem BioAssay.
TRPML1 ag: human mucolipin-1 channel agonism. activation, % (test concentration not listed). AID 624414. TRPML1-expressing cells, Ca2+ dye fluorescence, FDSS; host cell line not named in the record; reference of the full effect not given here. actives 0.12% (n = 410,000). Q9GZU1; in the data active = activation above about 50%; inconclusive = about 30% to 50%; inactive = below about 30%; note: 0% is about no effect; the text of the record puts the active cut at 80%
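Calcium fluorescence on an FDSS kinetic reader gave the read-out. Tet-induced TRPML1-DL cells were plated overnight, dye-loaded (Ca8 with quencher, 45-90 min, room temperature, dark), then read 110 s after compound addition, and again 110 s after 4uM final 54-4 (EC80).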
TRPML1 inh: human mucolipin-1 channel inhibition | AID 624415 | TRPML1-inducible cells, Ca2+ dye fluorescence, FDSS; stronger effect = lower value; inhibition of EC80 agonist-evoked calcium signal | activity change, negative = inhibition, % (test concentration not listed) | actives 0.02% (n = 390,000); in the data active means activity change below about -50%; inconclusive means about -30% to -50%; inactive means above about -30%;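 note: stimulus is agonist 54-4 at its EC80 concentration; % is set by controls: 0 for no effect and ±100 for the full control effect; compound concentration not given in the record; the text of the record puts the active cut at -80%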
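Tet-induced TRPML1-DL cells loaded with Ca8 no-wash calcium dye were read kinetically on FDSS. Compound addition was followed by EC80 agonist 54-4 (4 uM final); inhibition was read over 110 s.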
D2 potentiator: human D2 receptor positive allosteric modulation | P14416 | potentiation, % (no concentration beside the values) | actives 0.23% (n = 360,000) | DiscoveRx D2 beta-arrestin cells, luminescence, 90 min; 100% = 57 uM dopamine signal; active = potentiation of 50% or more; inconclusive = 30% to 50%; inactive = 30% or less;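 note: compound concentration not given in the record; tested on top of an EC20 dose of dopamine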
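PathHunter beta-arrestin assay in DiscoveRx D2 cells. Compounds were added with an EC20 of dopamine (50 nM final) for 90 min at 37 deg C. Luminescence was read 1 h after detection reagent, with 57 uM dopamine as the EC100 control.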
D2 agonist: agonists of human D2 dopamine receptor (beta-arrestin). actives 0.084% (n = 360,000). activation, % (concentration not given with the values). P14416. DiscoveRx PathHunter D2 beta-arrestin, luminescence, 90 min; 100% = 57 uM dopamine signal; in the data active = activation above about 40%; inconclusive = about 15% to 40%; inactive = below about 15%; note: compound concentration not given in the record; the text of the record calls up to 30% inactive
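Agonist mode: compounds alone added to overnight-plated D2 PathHunter cells for 90 min at 37 C, with 57 uM final dopamine (EC100) defining full response. Beta-arrestin recruitment detected by chemiluminescent reagent, read after 1 h at ambient temperature.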
PINK1 expr mod: modulators of PINK1 expression; PINK1 immunofluorescence, high-content cytometry, 24 h; Potency, µM (top dose mostly 76.6 µM), for inactives: top-dose activation (PINK1 increase), hits mostly activators; actives 0.2% (n = 410,000); active = well fitted activation curve with a large enough effect; inconclusive = small, poorly fitted or top-dose-only effect; inactive = flat fitted curve, though single readings scatter; cell line not stated here;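 note: potency is the fitted concentration of half-maximal effect; % of control where 0% means no effect; nearly all actives have a fitted effect of over 65% in size; a mitochondrial uncoupler was the plate control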
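PINK1 protein level read as immunofluorescence by microplate cytometer in a fixed, stained stable cell line after 24 h exposure to five compound concentrations, with CCCP as control.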
Six1-Eya2 blk: blocks human Six1 binding to Eya2; Q15475+O00167; AlphaScreen GST-Six1/His-Eya2 binding, biochemical; stronger effect = lower value; control for the full effect not named in the record; activity change, % (concentration not given with the values); actives 0.56% (n = 360,000); in the data active = activity change below about -65%; inconclusive = about -30% to -65%; inactive = above about -30%; note: % is set by controls: 0 for no effect and ±100 for the full control effect
Target sequence (O00167 whole entry, looked up): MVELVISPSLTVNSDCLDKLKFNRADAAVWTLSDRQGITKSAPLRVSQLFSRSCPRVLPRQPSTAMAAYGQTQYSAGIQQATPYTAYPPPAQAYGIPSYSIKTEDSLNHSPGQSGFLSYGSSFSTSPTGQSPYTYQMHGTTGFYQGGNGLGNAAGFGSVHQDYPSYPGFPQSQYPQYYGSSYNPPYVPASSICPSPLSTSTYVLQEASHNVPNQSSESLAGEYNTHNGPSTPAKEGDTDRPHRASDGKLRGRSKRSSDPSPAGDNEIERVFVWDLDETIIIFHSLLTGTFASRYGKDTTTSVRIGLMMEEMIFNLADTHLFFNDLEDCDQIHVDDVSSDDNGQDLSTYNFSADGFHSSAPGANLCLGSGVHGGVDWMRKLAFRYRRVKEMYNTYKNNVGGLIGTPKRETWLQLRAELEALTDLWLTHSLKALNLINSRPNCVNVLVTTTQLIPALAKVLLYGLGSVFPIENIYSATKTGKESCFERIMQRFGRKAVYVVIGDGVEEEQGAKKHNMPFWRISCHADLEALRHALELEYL
Target sequence (Q15475 whole entry, looked up): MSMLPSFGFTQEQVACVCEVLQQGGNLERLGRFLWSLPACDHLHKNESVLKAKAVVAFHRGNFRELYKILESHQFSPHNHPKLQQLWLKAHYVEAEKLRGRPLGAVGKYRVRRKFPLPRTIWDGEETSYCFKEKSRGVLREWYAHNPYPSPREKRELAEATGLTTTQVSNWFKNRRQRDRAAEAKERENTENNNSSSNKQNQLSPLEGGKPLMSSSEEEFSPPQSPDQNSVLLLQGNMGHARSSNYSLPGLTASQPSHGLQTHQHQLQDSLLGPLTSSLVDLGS
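AlphaScreen luminescence read after one hour at 37 °C in darkness. Pin-transferred compounds met GST-Six1 and His-Eya2 protein (5X stock 250 nM/500 nM) plus glutathione donor and Ni-chelate acceptor beads (5X, 50 ug/mL).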
Active calls of the source: *; u = inconclusive; x = not tested or not shown; [ ] = remark or other dose.

Molecule,TRPML1 inh,PINK1 expr mod,TRPML1 ag,Six1-Eya2 blk,D2 potentiator,D2 agonist
Cc1c(O[C@@H]2O[C@H](CO)[C@@H](O)[C@H](O)[C@H]2O)ccc2c1oc(=O)c1ccccc12,-14,-0.8%,0.5,4,-4,-4.1
O=C(c1cc(C2CC2)nn1-c1ccccc1)N1CCN(S(=O)(=O)c2ccc(F)cc2)CC1,-9,-1.5%,0.0,-4,-26,-4.9
COc1ccc2oc(C(=O)N3CCN(S(=O)(=O)c4c(C)c(C)cc(C)c4C)CC3)c(C)c2c1,-4,0.6%,0.3,-4,2,5.3
COc1ccc(C(=O)/C=C/Nc2ccc(C)cn2)cc1OC,0,2.7%[38.3 µM],0.6,-2,-7,1.2
N#CCCN1CCN(C(=S)c2ccc(-c3cccc(Cl)c3)o2)CC1,50,0.7%[38.3 µM],2.0,u,-4,0.1
Cn1c(Sc2ccc(Cl)cc2)c(C=O)c2ccccc21,11,0.9%,0.7,4,-3,0.2
COc1ccc(NC(=O)CCCSc2ccccc2)cc1,6,-0.9%,0.2,1,-2,-1.9
O=C(NCCS(=O)(=O)N1CCN(c2ccccc2F)CC1)c1ccccc1C(F)(F)F,-29,0.7%,3.1,x,x,x

Remaining list, next part.
Molecule,TRPML1 inh,PINK1 expr mod,TRPML1 ag,Six1-Eya2 blk,D2 potentiator,D2 agonist
COc1c(C)cc(C(O)c2ncc(-c3cccc(C(F)(F)F)c3)[nH]2)cc1C (configuration not stated),x,u,-0.8,u,-34,-2.7
O=C(COC(=O)C1CC(=O)N(C2CCCCC2)C1)c1ccc(F)cc1 (configuration not stated),-4,2.5%,0.2,-1,-9,-4.2
CC(C)NC(=O)Nc1ccc2c(c1)C(=O)N([C@H](C)CO)C[C@H](C)[C@@H](CN(C)S(=O)(=O)c1ccccc1)O2,-15,0.2%,0.1,3,-11,-1.7
O=c1[nH]c2cc3c(cc2cc1CN(CCc1ccccc1)Cc1nnnn1CC1CCCO1)OCO3 (configuration not stated),12,-3.3%[38.3 µM],0.3,1,-10,-3.1
CC(C)(C)c1ccc(C(=O)NCC(c2cccnc2)N2CCc3ccccc3C2)cc1 (configuration not stated),-8,0.2%,-0.3,x,x,x
CC(=O)NNS(=O)(=O)c1ccc(-c2cc(C(F)(F)F)n(C)n2)s1,21,1.9%,-0.4,2,2,-0.4
CCN1C[C@@H]2[C@@H]3C(=O)N(C)C(=O)[C@@H]3[C@](CC)(C(=O)OC)N2C1=NCc1ccccc1,-5,0.6%,-0.4,-1,x,-1.9
Cc1cc(NS(=O)(=O)c2ccc(NC(=O)CCCOc3cccc(C)c3C)cc2)no1,13,0.4%,-0.4,-3,8,-1.5

Other results:
Molecule,TRPML1 inh,PINK1 expr mod,TRPML1 ag,Six1-Eya2 blk,D2 potentiator,D2 agonist
O=C(Nc1ccc(Cc2ccncc2)cc1)c1cccc([N+](=O)[O-])c1,4,-0.6%,1.0,-2,-11,13
COc1ccc(CN2CCN(C(=O)c3ccccc3F)CC2)c(OC)c1OC,-9,2.5%,-0.7,-7,-11,5.4
CCN(CC)CCN1C(=O)c2oc3ccc(F)cc3c(=O)c2C1c1ccncc1 (configuration not stated),-5,-1.1%,1.4,10,-4,-4.0
CC1(c2ccccc2)NC(=O)N(CC(=O)Nc2ccc(S(N)(=O)=O)cc2)C1=O (configuration not stated),-1,2.3%,1.1,3,1,-0.1
COc1ccc(S(=O)(=O)N2N=C(c3cccc(NS(C)(=O)=O)c3)CC2c2ccco2)cc1 (configuration not stated),2,0.5%,1.3,-24,-8,0.4
C=CCc1ccc2oc(C(=O)OCC)cc(=O)c2c1O,-12,3.7%,0.2,-3,2,1.9
Cc1noc(C)c1CSCC(=O)OCc1nnc(-c2ccc([N+](=O)[O-])cc2)o1,15,-0.2%,0.0,-4,25,5.3
COc1ccc(N2C(=NC(=O)c3ccc(Br)cc3)SC3CS(=O)(=O)CC32)cc1 (configuration not stated),1,7.8%,-0.3,7,-2,1.2

Next records.
Molecule,TRPML1 inh,PINK1 expr mod,TRPML1 ag,Six1-Eya2 blk,D2 potentiator,D2 agonist
CCC1(C2C=COC=C2)NC(=O)NC1=O (configuration not stated),x,0.0%,-0.5,-1,-6,-5.9
Cc1ccc(NC(=O)C2CCCN(S(=O)(=O)c3ccc4[nH]c(=O)ccc4c3)C2)c(C)c1 (configuration not stated),11,13%,4.1,-3,-1,-1.8
Cc1ccc(C(=O)CSc2nnc(N)s2)c(C)c1,9,0.7%,-1.4,2,1,-1.3
COCCCN(C(=O)CSCc1c(C)noc1C)c1c(N)n(Cc2ccccc2)c(=O)[nH]c1=O,-4,-0.8%,-0.7,4,-8,-0.8
Cc1ccc(NC(=O)Cc2noc3ccccc23)nc1,17,-2.1%,0.8,0,-10,0.9
COc1cccc(NC(=O)C2CCC(CNS(=O)(=O)c3csc(C(N)=O)c3)CC2)c1 (configuration not stated),-11,1.4%,-0.6,x,x,x
O=S(=O)(c1ccc(F)c(F)c1F)N1CCN(C(=S)NC2CC3CCC2C3)CC1 (configuration not stated),10,7.2%,1.6,-2,-3,2.2
CC(C)C(C(=O)Nc1ccncc1)c1ccc(Cl)cc1 (configuration not stated),-7,1.2%,7.4,-1,-10,-4.1

Nine entries from above, ordered by heavy-atom count, descending:
Molecule,TRPML1 inh,PINK1 expr mod,TRPML1 ag,Six1-Eya2 blk,D2 potentiator,D2 agonist
COCCCN(C(=O)CSCc1c(C)noc1C)c1c(N)n(Cc2ccccc2)c(=O)[nH]c1=O,-4,-0.8%,-0.7,4,-8,-0.8
COc1ccc(S(=O)(=O)N2N=C(c3cccc(NS(C)(=O)=O)c3)CC2c2ccco2)cc1 (configuration not stated),2,0.5%,1.3,-24,-8,0.4
Cc1ccc(NC(=O)C2CCCN(S(=O)(=O)c3ccc4[nH]c(=O)ccc4c3)C2)c(C)c1 (configuration not stated),11,13%,4.1,-3,-1,-1.8
COc1cccc(NC(=O)C2CCC(CNS(=O)(=O)c3csc(C(N)=O)c3)CC2)c1 (configuration not stated),-11,1.4%,-0.6,x,x,x
CCN(CC)CCN1C(=O)c2oc3ccc(F)cc3c(=O)c2C1c1ccncc1 (configuration not stated),-5,-1.1%,1.4,10,-4,-4.0
O=S(=O)(c1ccc(F)c(F)c1F)N1CCN(C(=S)NC2CC3CCC2C3)CC1 (configuration not stated),10,7.2%,1.6,-2,-3,2.2
C=CCc1ccc2oc(C(=O)OCC)cc(=O)c2c1O,-12,3.7%,0.2,-3,2,1.9
Cc1ccc(C(=O)CSc2nnc(N)s2)c(C)c1,9,0.7%,-1.4,2,1,-1.3
CCC1(C2C=COC=C2)NC(=O)NC1=O (configuration not stated),x,0.0%,-0.5,-1,-6,-5.9

The listing continues:
Molecule,TRPML1 inh,PINK1 expr mod,TRPML1 ag,Six1-Eya2 blk,D2 potentiator,D2 agonist
Cc1cc(/C=C(\C#N)C(=O)NCc2cccs2)c(C)n1-c1ccccc1F,16,2.0%,0.7,-7,-10,0.4
CC(C)N(Cc1ccccc1)C(=O)CC(=O)N(Cc1ccccc1)C(C)C,-12,0.4%,-0.7,-7,-11,-1.8
COc1cccc(C2CC(=O)Nc3cc(OC)c(OC)c(OC)c32)c1OC (configuration not stated),11,0.1%,-0.1,-3,2,-1.5
COc1ccc(NC(=O)CC(C)c2ccccc2)c([N+](=O)[O-])c1 (configuration not stated),-3,0.7%,1.0,-23,-24,-3.5
COc1ccc(Oc2c(Cl)cnn(-c3ccc(F)cc3)c2=O)cc1,-11,-1.6%,1.9,6,-2,-3.2
COc1ccc(C(=O)Nc2nccs2)cc1,52,0.9%,0.7,-21,-2,0.3
Cc1nc2ncnn2c(C)c1CCC(=O)O,-3,-0.6%,-0.7,3,19,1.9
COc1ccc(C(CNC(=O)c2cc(S(=O)(=O)NCc3ccccc3)ccc2C)N2CCOCC2)cc1 (configuration not stated),-19,-0.2%,-0.7,-6,1,-1.5

(next part)
Molecule,TRPML1 inh,PINK1 expr mod,TRPML1 ag,Six1-Eya2 blk,D2 potentiator,D2 agonist
COC(=O)/C=C1/S/C(=N/NC(=O)c2ccc(OC)cc2)NC1=O,0,0.9%,-0.1,-1,-3,-4.8
Cc1ccc(C(=O)Nc2onc(C)c2C#N)cc1,-15,-0.6%,-0.7,1,22,1.7
CCC(SC1=NCCS1)C(=O)Nc1nnc(-c2ccccc2OC)s1 (configuration not stated),8,2.2%,0.1,-5,-7,-4.8
Cc1ccc(C(NC(=O)N2CCCC2)C(Cl)Cl)cc1F (configuration not stated),-20,7.0%,0.2,11,-4,-1.3
CC(C)c1ccc2oc(-c3cc(NC(=O)c4cccnc4)ccc3Cl)nc2c1,-7,-0.6%,1.2,x,x,x
COc1ccc(-c2nnc(NC(=O)c3ccc(F)cc3)o2)cc1,0,1.1%,0.4,-9,1,-6.1
CCOC(=O)[C@H]1[C@H]2COc3ccc(C)cc3[C@@H]2N2C(=O)CN(Cc3ccc(Cl)cc3)C(=O)[C@@]12C,-4,-0.5%,0.2,2,-7,-0.3
COc1ccc(-c2csc3nc(C)nc(N4CCC(C)CC4)c23)cc1OC,82,11%,-0.4,-7,-9,0.3

Next part.
Molecule,TRPML1 inh,PINK1 expr mod,TRPML1 ag,Six1-Eya2 blk,D2 potentiator,D2 agonist
COc1cccc(COC(=O)CCNC(=O)c2ccc(Cl)cc2)c1OC,-6,4.2%,1.0,4,1,1.9
COc1ccc(C(NC(=O)C2CCN(CCOc3ccc(F)cc3)CC2)c2cccs2)cc1 (configuration not stated),-30,-0.1%,0.5,-3,-17,-4.4
CCn1c(=O)c(CCC(=O)NCC2CCCO2)c(C)c2c(C)nn(-c3ccccc3)c21 (configuration not stated),-10,-2.2%,0.4,-8,-13,-1.7
CC(C)(C)NC(=O)NC(=O)COC(=O)c1cc(=O)[nH]c2ccccc12,0,-1.1%,-0.6,1,4,-2.9
CCCNC(=O)C1(C)CCCN(Cc2ccccc2N(C)C)C1 (configuration not stated),8,0.5%,-0.5,4,-9,-4.6
CCO[C@@H]1OC(C(N)=O)=C[C@H](c2ccc(C(F)(F)F)cc2)[C@H]1CCCO,-2,1.0%,-0.4,9,-13,-2.9
Cc1ccc(NC(=O)CN2C(=O)S/C(=C\c3ccccn3)C2=O)cc1,16,1.5%,0.7,-1,-4,-4.2
O=Cc1c(N2CCSCC2)nc2ccccn2c1=O,10,0.0%,0.4,10,0,4.5

Carrying on.
Molecule,TRPML1 inh,PINK1 expr mod,TRPML1 ag,Six1-Eya2 blk,D2 potentiator,D2 agonist
Cn1c(=O)[nH]c(=O)c2c1nc(N1CCOCC1)n2CCCSc1ncccn1,-2,3.4%,-0.3,0,-8,-1.5
CN(C(=O)c1ccc(NC(=O)Cc2ccc(NC(=O)C3CCN(C(=O)c4ccccc4)CC3)cc2)cc1)C1CC1,-4,0.5%,-0.3,-14,-14,-4.1
O=C(NCc1ccccc1OC(F)(F)F)C1CCC(=O)N(CCCN2CCOCC2)C1 (configuration not stated),-8,-1.2%,-0.4,1,-9,-0.1
Cc1nn(C)cc1CNC(=O)Nc1ccc(Br)cc1Cl,14,-0.2%,-0.1,4,-14,-1.7
